Sfp PPTase inh: Sfp phosphopantetheinyl transferase inhibition; Biochemical Sfp PPTase activity, qHTS; Potency, µM, for the others: max response, negative = inhibition, most hits filed as inhibitors; AID 1490; actives 3.5% (n = 310,000); active = well fitted inhibition curve with a large enough effect; inconclusive = small, poorly fitted or top-dose-only effect, or another doubt; inactive = no such curve, though single readings can be large or run the other way;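 note: the enzyme is Sfp with the accession as filed and its product quenches rhodamine fluorescence; potency is the fitted concentration of half-maximal effect; 0% = enzyme reaction without inhibitor and -100% = no enzyme wells; top concentration of the series not given in the record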
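Compounds were incubated with enzyme (final 15 nM) for 15 min at room temperature before substrate addition started the reaction. Fluorescence at 525 nm excitation, 598 nm emission was recorded immediately and after 30 minutes.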
Menin MLL FP FL: inhibitors of human menin-MLL interaction, wild-type MLL peptide; FP activity change, % at 61.4 µM; 290,000 tested, under 10 active; Fluorescence polarization, fluorescein-MLL peptide displacement from menin; AID 1766; inconclusive = falling polarisation curve, or a change in total fluorescence; inactive = total fluorescence flat and polarisation flat or rising; no compound was filed as active; the % refers to the polarisation; negative = inhibition;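 note: % of control where 0% means no effect; inhibitors lower the polarisation; unlabelled MLL peptide was the positive control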
D2 potentiator: human D2 receptor positive allosteric modulation. actives 0.23% (n = 360,000). potentiation, % (test concentration not listed). DiscoveRx D2 beta-arrestin cells, luminescence, 90 min; 100% = 57 uM dopamine signal; active = potentiation of 50% or more; inconclusive = 30% to 50%; inactive = 30% or less;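 note: compound concentration not given in the record; tested on top of an EC20 dose of dopamine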
Target sequence (P14416 whole entry, looked up): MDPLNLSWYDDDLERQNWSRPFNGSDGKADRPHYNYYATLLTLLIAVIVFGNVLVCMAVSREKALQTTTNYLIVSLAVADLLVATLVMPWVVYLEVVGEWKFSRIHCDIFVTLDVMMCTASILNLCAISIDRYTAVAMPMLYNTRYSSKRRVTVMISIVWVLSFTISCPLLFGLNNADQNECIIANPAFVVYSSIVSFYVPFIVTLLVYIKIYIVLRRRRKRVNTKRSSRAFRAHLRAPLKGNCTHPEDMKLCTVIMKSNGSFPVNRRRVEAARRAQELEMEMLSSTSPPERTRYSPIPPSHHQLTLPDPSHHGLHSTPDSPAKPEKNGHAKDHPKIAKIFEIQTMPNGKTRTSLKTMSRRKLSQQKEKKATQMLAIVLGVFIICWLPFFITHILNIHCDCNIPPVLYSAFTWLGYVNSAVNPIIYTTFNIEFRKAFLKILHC
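PathHunter beta-arrestin assay in DiscoveRx D2 cells. Compounds were added with an EC20 of dopamine (50 nM final) for 90 min at 37 deg C. Luminescence was read 1 h after detection reagent, with 57 uM dopamine as the EC100 control.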
gsp ag: activates gsp, the McCune-Albright syndrome mutation; gsp mutant cells, cAMP HTRF, 30 min; control for the full effect not named in the record; actives 0.13% (n = 340,000); Potency, µM (highest dose often 76.9 µM), for the others: at the top dose activation (cAMP increase), actives largely listed as activators; AID 624287; active = well fitted activation curve with a large enough effect; inconclusive = small, poorly fitted or top-dose-only effect, or another doubt; inactive = no such curve, though single readings can be large or run the other way; cell line not stated here;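 note: phosphodiesterase inhibitor Ro 20-1724 added with compounds to block cAMP breakdown; potency is the fitted concentration of half-maximal effect; nearly all actives have a fitted effect of over 60% in size; about a fifth of the inactives were tested at one dose only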
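Cells in DMEM/10% FBS with G418 were pretreated with compounds in DMSO plus […] (300 uM stock) for 30 min at 37C. cAMP was measured by HTRF (cAMP-d2 plus anti-cAMP antibody-K) after 30 min at room temperature.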
ClpP mod: qHTS Assay for Activators of ClpP. ATP-dependent Clp protease proteolytic subunit (Bacillus subtilis (strain 168)), P80244. purified B. subtilis ClpP, FRET peptide cleavage, 20 min. Potency, µM (doses to about 57.5 µM), for inactives: at the highest dose activity change, negative = active. actives 1.9% (n = 340,000); active = well fitted falling curve with a large enough effect; inconclusive = small, poorly fitted or top-dose-only effect; inactive = no such curve, though single readings can be large or run the other way; note: potency is the fitted concentration of half-maximal effect; the source files actives as falling curves though it sought activators and does not explain the sign; nearly all actives have a fitted effect of over 65% in size; many hits overshoot -100%
Target sequence (P80244 whole entry, looked up): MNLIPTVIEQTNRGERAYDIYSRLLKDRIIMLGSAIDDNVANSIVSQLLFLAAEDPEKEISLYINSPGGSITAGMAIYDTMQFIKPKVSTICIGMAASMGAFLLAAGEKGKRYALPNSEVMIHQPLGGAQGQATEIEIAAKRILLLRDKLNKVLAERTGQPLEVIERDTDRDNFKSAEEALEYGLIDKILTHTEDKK
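FRET quenching reversal measured ClpP activation: 10 microg/mL B. subtilis ClpP at pH 8 with the FRET-FV decapeptide, read at 430 nm after 320 nm excitation. The 20-min minus 0-min signal was scaled between DMSO/no-enzyme wells and ADEP (5.8 microM final).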
TRPV1 potentiator: enhances activation of the human vanilloid receptor TRPV1 | Q8NER1 | TRPV1-expressing cells, Fluo-8 calcium influx, capsaicin EC20 potentiation; host cell line not named in the record; control for the full effect not named in the record | potentiation, % at 8.33 µM | actives 0.02% (n = 320,000) | AID 540277; active means potentiation above 80%; inconclusive means 30% to 80%; inactive means below 30%; note: 0% is about no effect
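Fluo-8 calcium influx in TRPV1-expressing cells, kinetic read (ex 480/em 520 nm). Compound added and read 3 min for agonist activity, followed by capsaicin at EC20 final and 2 min further read for enhancement.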
gsp antag: antagonists of gsp mutant (McCune-Albright syndrome) | gsp-mutant cells, cAMP HTRF, 30 min; control for the full effect not named in the record | Potency, µM (titrated, usually from 76.9 µM), for the others: at the top dose activity change, negative = inhibition, usual class: inhibitors | actives 0.4% (n = 340,000); active = falling curve of any shape with a large fitted effect; inconclusive = falling curve, mostly with a smaller effect; inactive = flat or rising curve; cell line not stated here;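 note: intracellular cAMP measured with PDE inhibitor Ro 20-1724 present during compound exposure; potency is the fitted concentration of half-maximal effect; % is set by controls: 0 for no effect and ±100 for the full control effect; nearly all actives have a fitted effect of over 65% in size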
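HTRF cAMP measurement after 30 min RT detection following 30 min, 37C compound treatment alongside […] (added as 300 uM solution) in G418-selected cells seeded at 2000/well and grown 16–24 h.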
Numbers without * were called inactive; u = inconclusive; x = not tested or not shown; & = joins results of further samples; [ ] = remark or other dose. The order is random; any-hit rate near 5.1%.

cpd | Structure | Sfp PPTase inh | Menin MLL FP FL | D2 potentiator | gsp ag
1 | CS(=O)(=O)N(CC(=O)N/N=C/c1ccccn1)c1ccc(Oc2ccccc2)cc1 | -17% | 0.0 | 0 | -28%
2 | COc1cccc(CNC(=S)NC2CCCC2)c1 | 8% | 5.7 | -9 | -1%
3 | CNC(=O)c1c(NC(=O)c2ccc(N3C(=O)CCC3=O)cc2)sc2c1CCCC2 | -5% | -0.8 | -1 | u
4 | CCNc1nc(NCC)n2c(SCC(=O)c3ccccc3F)nnc2n1 | 20% | -11 | -2 | 3%
5 | CC(c1ccccc1)n1c(-c2ccncc2)n[nH]c1=S (stereo unspecified) | 3% | 1.1 | -11 | 5%
6 | CCn1c(SCC(=O)NNC(=O)Cc2ccccc2)nnc1-c1ccccc1 | 7% | 1.1 | -1 | u
7 | COc1ccc(C(CNC(=O)C(=O)Nc2ccc3c(c2)OCCO3)N2CCN(C)CC2)cc1 (stereo unspecified) | x | x | -5 | -4%[15.4 µM]
8 | CCCN1C(=O)S/C(=C/c2ccc(N3CCOCC3)o2)C1=O | 1.3µM* | u | 4 | -43%[inhibitor]
9 | Cc1ccc(CC(=O)Nc2cc(C)on2)cc1 | -24% | 5.7 | -1 | -4%[15.4 µM]
10 | COc1cccc(OCCCN2CCCCC2)c1 | 9% | 1.3 | -7 | 11%

cpd | ClpP mod | TRPV1 potentiator | gsp antag
1 | 0.5% | -4 | -11%
2 | -4.4% | -14 | 6%
3 | -2.9% | 4 | u
4 | 0.9% | 9 | -8%
5 | -21% | 19 | 3%
6 | 0.0% | 0 | 5%
7 | 1.4% | -15 | -1%
8 | x | u | -11%
9 | -0.5% | 4 | 21%
10 | -0.1% | 6 | -2%

The listing continues.
cpd | Structure | Sfp PPTase inh | Menin MLL FP FL | D2 potentiator | gsp ag
11 | Cc1[nH]c(C)c(S(=O)(=O)N2CCN(c3ccccc3)CC2)c1C(=O)N1CCCCC1 | 3% | x | -8 | 28%
12 | Cc1ccc(-n2nnnc2SCc2ccc(C(=O)O)cc2)cc1C | 2% | 0.8 | 10 | u
13 | Cc1[nH]c(=O)[nH]c(=O)c1/C=N/NC(=O)[C@H](C)NC(=O)OC(C)(C)C | u | 3.9 | 15 | -67%[inhibitor]
14 | N=c1c2c(ncn1CCCO)Oc1c(ccc3ccccc13)C2c1ccccc1 (stereo unspecified) | u | -1.1 | -11 | u
15 | COC(=O)c1c(NC2=NS(=O)(=O)c3ccccc32)sc2c1CCC(C(C)(C)C)C2 (stereo unspecified) | x | x | 0 | 2%[15.4 µM]
16 | CNCc1ccccc1Sc1ccc(O)c(O)c1 | u | 0.5 | u | -4%
17 | CC(=O)c1cccc(CN2CCN(CC=C(C)C)C(CCO)C2)c1 (stereo unspecified) | 20% | 0.1 | -11 | 6%[15.4 µM]
18 | Cn1ccnc1SCC(=O)c1cccc(C(F)(F)F)c1 | -4% | 7.7 | -2 | 17%[15.4 µM]
19 | C=CCN1C(=O)c2ccc(C(=O)NCCc3ccc(F)cc3)cc2C1=O | x | x | 15 | -57%[inhibitor]
20 | O=C(CCc1nc2ccccc2c(=O)[nH]1)NCCN1C(=O)S/C(=C\c2ccccc2Cl)C1=O | x | x | 15 | -65%[inhibitor]

cpd | ClpP mod | TRPV1 potentiator | gsp antag
11 | -2.4% | 12 | 5%
12 | 1.7% | -21 | u
13 | -2.0% | x | -11%
14 | 0.1% | -17 | 0%
15 | x | x | 0%
16 | -2.0% | -3 | -9%
17 | x | 3 | 14%
18 | x | 2 | 0%
19 | 0.7% | x | -1%
20 | -5.9% | -9 | -2%

Remaining list, next part
cpd | Structure | Sfp PPTase inh | Menin MLL FP FL | D2 potentiator | gsp ag
21 | COc1cc(Br)c(-c2sc(Nc3ccccc3)n[n+]2-c2ccc(F)cc2)cc1OC | -21% | u | -7 | -11%
22 | CCN(CC)c1ccc(NC(=O)c2ccccc2F)cc1 | -16% | -0.9 | -18 | -32%[inhibitor]
23 | CSc1nnc(Cc2ccc3c(c2)OCO3)o1 | 15% | 3.0 | -3 | -25%
24 | CCSc1nnc(NC(=O)c2cccc(S(=O)(=O)N(C)c3ccc(C)cc3)c2)s1 | 30%[activator] | 5.6 | 2 | -41%[inhibitor]
25 | COC(=O)C1=CO[C@@H](O[C@@H]2OC(CO)[C@@H](O)[C@@H](O)[C@@H]2O)C2C1CC[C@]2(C)O (stereo partly specified) | x | x | -11 | x
26 | CC(=O)Oc1ccc2c(c1)C(=O)c1ccccc1CO2 | -5% | -0.8 | -8 | u
27 | CCCCCCCCN1[C@@H](CC(=O)O)c2cc(F)ccc2S1(=O)=O | x | x | -9 | -27%
28 | COCCn1c(SCc2nnc(-c3ccc(OC)c(OC)c3)o2)nnc1-c1ccncc1 | 14% | 1.9 | 8 | -4%[15.4 µM]
29 | CN1C(=O)NC(NC(=O)c2ccco2)(C(F)(F)F)C1=O (stereo unspecified) | 4% | -1.2 | -4 | -23%
30 | COc1cccc(-c2noc(C3CCCN(C(=O)c4ccc(F)cc4F)C3)n2)c1 (stereo unspecified) | 16% | -2.9 | 0 | u

cpd | ClpP mod | TRPV1 potentiator | gsp antag
21 | -0.6% | -9 | 7%
22 | -1.0% | -10 | -10%
23 | 1.3% | -9 | -11%
24 | -9.6% | -18 | -26%
25 | 0.8% | x | 8%
26 | -3.7% | 7 | 15%
27 | 1.5%&-0.7% | x | -10%
28 | x | 6 | 7%
29 | 0.0% | -8 | 6%
30 | -1.1% | -15 | -14%

(next part)
cpd | Structure | Sfp PPTase inh | Menin MLL FP FL | D2 potentiator | gsp ag
31 | Cc1cccc(NC(=S)NC(C)CCc2ccccc2)c1 (stereo unspecified) | 18% | 2.3 | -4 | -1%[15.4 µM]
32 | Cc1ccc(C)c(OC(C)C(=O)Nc2ccc(S(=O)(=O)Nc3nccs3)cc2)c1 (stereo unspecified) | 9% | 0.8 | -6 | -4%[15.4 µM]
33 | CC1CC(=O)NN=C1c1ccc(N)c([N+](=O)[O-])c1 (stereo unspecified) | -7% | 5.5 | -5 | -18%
34 | Clc1ccc(-c2nc3ccncc3[nH]2)cc1 | u | 3.0 | -5 | 8%[15.4 µM]
35 | COC(=O)/C(C#N)=C/c1c(N2CCN(c3ccccc3)CC2)nc2ccccn2c1=O | -3% | 3.8 | 10 | 30%
36 | C[C@H](NC(=O)c1ccccc1Cl)C(=O)OCCOc1ccc(Cl)cc1 | -3% | -0.1 | -10 | -4%
37 | COc1ccc(CN2CCN(C(=O)c3ccc(S(=O)(=O)N4CCCCCC4)cc3)CC2)cc1 | x | x | -4 | -7%[15.4 µM]
38 | COC(=O)c1ccc(NC(=O)C2CC3CCC2C3)cc1 (stereo unspecified) | x | x | -16 | 11%[15.4 µM]
39 | COc1ccc(NC(=O)c2ccc3c(c2)C(=O)N(Cc2ccncc2)C3=O)cc1S(N)(=O)=O | x | x | 4 | -4%[15.4 µM]
40 | Cc1ccc(C(=O)OCCN(C)Cc2ccccc2)cc1 | 6% | 0.2 | -19 | 4%

cpd | ClpP mod | TRPV1 potentiator | gsp antag
31 | -1.3% | 13 | -12%
32 | x | 14 | -13%
33 | 0.9% | -11 | 9%
34 | u | -8 | 2%
35 | x | -5 | -5%
36 | -0.9% | 0 | 1%
37 | -0.7% | -9 | -7%
38 | x | x | -4%
39 | 0.7% | x | 1%
40 | 0.5% | -11 | 16%

An excerpt from above, showing only D2 potentiator.
| nr | SMILES | D2 potentiator |
| --- | --- | --- |
| 34 | Clc1ccc(-c2nc3ccncc3[nH]2)cc1 | -5 |
| 35 | COC(=O)/C(C#N)=C/c1c(N2CCN(c3ccccc3)CC2)nc2ccccn2c1=O | 10 |
| 36 | C[C@H](NC(=O)c1ccccc1Cl)C(=O)OCCOc1ccc(Cl)cc1 | -10 |
| 37 | COc1ccc(CN2CCN(C(=O)c3ccc(S(=O)(=O)N4CCCCCC4)cc3)CC2)cc1 | -4 |

Complete entries as entered above. Screens in order: Sfp PPTase inh, Menin MLL FP FL, D2 potentiator, gsp ag, ClpP mod, TRPV1 potentiator, gsp antag
COc1ccc(CN2CCN(C(=O)c3ccc(S(=O)(=O)N4CCCCCC4)cc3)CC2)cc1 as listed: x, x, -4, -7%[15.4 µM], -0.7%, -9, -7%
Clc1ccc(-c2nc3ccncc3[nH]2)cc1 as listed: u, 3.0, -5, 8%[15.4 µM], u, -8, 2%

The results go on:
cpd | Structure | Sfp PPTase inh | Menin MLL FP FL | D2 potentiator | gsp ag
41 | CCCCN(C(=O)CC1OC(=O)c2ccccc21)c1c(N)n(CCCC)c(=O)[nH]c1=O (stereo unspecified) | x | x | -12 | -5%
42 | O=c1c2ccccc2c(C=NC2CCS(=O)(=O)C2)c(O)n1-c1ccccc1 (stereo unspecified) | 20% | -2.2 | -8 | -28%
43 | Cc1cccc(-c2noc(CN(C(=O)c3ccc4c(c3)OCO4)C(C)C)n2)c1 | -14% | 5.4 | 9 | 3%
44 | CC(C)Cc1nc2ccccc2n1CCc1ccccc1 | -12% | -0.1 | -7 | 0%[15.4 µM]
45 | N#Cc1cccc(N2[C@@H](Cc3cc4ccccc4n3Cc3ccccc3)COC[C@H]2Cc2ccc3ccccc3c2)c1 | x | x | 3 | u
46 | O=C(/C(=C/c1cccnc1)n1ccnc1)c1ccc(Cl)cc1Cl | u | 1.2 | -12 | -6%
47 | Cc1cc(C(=O)N/N=C/c2c(C)nn(-c3ccccc3)c2C)c(C)o1 | 0% | -3.6 | -6 | 23%
48 | COc1cc2ccccc2cc1C(=O)N(CCN(C)C)c1nc2c(F)cccc2s1 | -23% | -2.7 | -26 | 18%
49 | O=C1NC(=S)S/C1=C\c1cc2ccccc2nc1N1CCCCC1 | 5% | u | -4 | 19%
50 | CCOC(=O)c1ccc(NC(=S)NNC(=O)C2(C)CC2(Cl)Cl)cc1 (stereo unspecified) | -6% | 1.2 | -11 | 20%

cpd | ClpP mod | TRPV1 potentiator | gsp antag
41 | -0.5% | -5 | -5%
42 | -0.4% | 13 | -6%
43 | u | -15 | -14%
44 | x | -7 | -15%
45 | 4.1% | x | x
46 | 1.1% | 26 | -10%
47 | x | 8 | -6%
48 | -2.5% | 5 | -15%
49 | x | -1 | -15%
50 | 2.8% | 0 | -21%

High-throughput results: PubChem, National Center for Advancing Translational Sciences (NCATS)
